Assay outcomes as filed in PubChem.
TRPML1 ag = agonists of human TRPML1 channel; Q9GZU1; TRPML1-expressing cells, Ca2+ dye fluorescence, FDSS; host cell line not named in the record; reference of the full effect not given here; activation, % (concentration not given with the values); 410,000 tested, 0.12% active; AID 624414; in the data active = activation above about 50%; inconclusive = about 30% to 50%; inactive = below about 30%; further: 0% is about no effect; the text of the record puts the active cut at 80%
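In this qHTS format, compounds were pin-transferred onto Ca8-dye-loaded TRPML1-DL cells induced with Tet overnight, and intracellular Ca2+ fluorescence was recorded kinetically for 110 s after a 10 s baseline. A subsequent 4uM final 54-4 (EC80) addition followed by a second 110 s read served as the antagonist phase.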
TRPML1 inh = blocks the human TRPML1 channel. activity change, negative = inhibition, % (no concentration beside the values). Q9GZU1. TRPML1-inducible cells, Ca2+ dye fluorescence, FDSS; stronger effect = lower value; inhibition of EC80 agonist-evoked calcium signal. 390,000 tested, 0.02% active; in the data active means activity change below about -50%; inconclusive means about -30% to -50%; inactive means above about -30%;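 further: stimulus is agonist 54-4 at its EC80 concentration; on the % scale 0 is the no-effect control and ±100 the full control effect; compound concentration not given in the record; the text of the record puts the active cut at -80%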
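TRPML1-DL cells, Tet-induced overnight (~16 h, 37 °C) at 1,500 cells/well, were loaded with Ca8 no-wash dye plus quencher for 45-90 min at room temperature. Compounds were pinned during FDSS kinetic reading; agonist 54-4 at EC80 (4 uM final) then added.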
PINK1 modulator = PINK1 expression modulation; PINK1 immunofluorescence, high-content cytometry, 24 h; Potency, µM (series often up to 76.6 µM), for inactives: top-dose activation (PINK1 increase), hits mostly activators; 410,000 tested, 0.2% active; active = well fitted activation curve with a large enough effect; inconclusive = small, poorly fitted or top-dose-only effect; inactive = flat fitted curve, though single readings scatter; cell line not stated here;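 further: potency means the concentration at half of the fitted maximal effect; % of control where 0% means no effect; nearly all actives have a fitted effect of over 65% in size; a mitochondrial uncoupler was the plate control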
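Stable cell line treated 24 h with compounds at 5 concentrations (CCCP controls), then fixed and immunostained for PINK1 plus nuclear and cell stains; PINK1 immunofluorescence quantified by laser-scanning microplate cytometry.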
D2 agonist = human D2 receptor agonism in beta-arrestin assay; DiscoveRx PathHunter D2 beta-arrestin, luminescence, 90 min; 100% = 57 uM dopamine signal; 360,000 tested, 0.084% active; AID 624465; activation, % (no concentration beside the values); P14416; in the data active = activation above about 40%; inconclusive = about 15% to 40%; inactive = below about 15%; further: compound concentration not given in the record; the text of the record calls up to 30% inactive
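DiscoveRx PathHunter D2 beta-arrestin cells (2,100/well) attached overnight, then compound-stimulated 90 min at 37 C in HBSS/10 mM HEPES/0.1% Tween-20 buffer; beta-galactosidase complementation read by luminescence after 1 h at ambient temperature. Dopamine 57 uM final (EC100) as control.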
CtBP-E1A blk = blocks the CtBP interaction with E1A | AlphaScreen GST-E1A/His-CtBP binding, 1536-well; stronger effect = lower value; control for the full effect not named in the record | activity change, % (no concentration beside the values) | 340,000 tested, 0.49% active; in the data active means activity change below about -65%; inconclusive means about -30% to -65%; inactive means above about -30%; further: on the % scale 0 is the no-effect control and ±100 the full control effect; compound concentration not given in the record
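In 5 uL wells, 23 nL compound meets equimolar GST-E1A and His-CtBP (5X stock 125 nM each) for 2 h, 37 °C. Beads (5X, 50 ug/mL) then 1 h, 37 °C, dark.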
Six1-Eya2 blk = Six1/Eya2 interaction inhibition; activity change, % (concentration not given with the values); AlphaScreen GST-Six1/His-Eya2 binding, biochemical; stronger effect = lower value; control for the full effect not named in the record; Q15475+O00167; 360,000 tested, 0.56% active; in the data active = activity change below about -65%; inconclusive = about -30% to -65%; inactive = above about -30%; further: on the % scale 0 is the no-effect control and ±100 the full control effect
Target sequence (O00167 whole entry, looked up): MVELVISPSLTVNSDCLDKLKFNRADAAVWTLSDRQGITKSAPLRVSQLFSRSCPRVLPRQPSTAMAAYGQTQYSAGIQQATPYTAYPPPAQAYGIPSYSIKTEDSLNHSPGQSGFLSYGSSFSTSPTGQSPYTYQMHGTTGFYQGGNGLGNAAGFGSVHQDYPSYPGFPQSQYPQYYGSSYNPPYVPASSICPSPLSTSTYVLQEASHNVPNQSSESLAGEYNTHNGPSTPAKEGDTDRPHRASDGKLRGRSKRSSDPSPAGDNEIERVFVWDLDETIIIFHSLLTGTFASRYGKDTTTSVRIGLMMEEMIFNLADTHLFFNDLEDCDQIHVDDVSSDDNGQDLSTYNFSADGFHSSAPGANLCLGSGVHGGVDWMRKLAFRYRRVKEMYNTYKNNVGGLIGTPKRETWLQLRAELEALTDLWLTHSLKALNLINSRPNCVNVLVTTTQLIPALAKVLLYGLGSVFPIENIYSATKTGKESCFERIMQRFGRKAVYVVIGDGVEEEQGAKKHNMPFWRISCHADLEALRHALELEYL
Target sequence (Q15475 whole entry, looked up): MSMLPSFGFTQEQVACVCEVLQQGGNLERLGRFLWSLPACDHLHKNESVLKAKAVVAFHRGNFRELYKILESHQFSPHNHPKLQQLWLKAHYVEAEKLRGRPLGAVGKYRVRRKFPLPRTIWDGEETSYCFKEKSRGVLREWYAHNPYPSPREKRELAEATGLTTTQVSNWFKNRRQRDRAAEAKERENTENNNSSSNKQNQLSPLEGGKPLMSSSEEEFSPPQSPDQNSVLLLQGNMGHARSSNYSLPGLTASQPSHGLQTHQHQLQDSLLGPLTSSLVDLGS
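AlphaScreen luminescence read after one hour at 37 °C in darkness. Pin-transferred compounds met GST-Six1 and His-Eya2 protein (5X stock 250 nM/500 nM) plus glutathione donor and Ni-chelate acceptor beads (5X, 50 ug/mL).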
Numbers without * were called inactive; ? = inconclusive; / = not tested or not shown; & = joins results of further samples; [ ] = remark or other dose.

SMILES	TRPML1 ag	TRPML1 inh	PINK1 modulator	D2 agonist	CtBP-E1A blk	Six1-Eya2 blk
CCCCNC(=S)N/N=C1\C(=O)c2cccc3cccc1c23	-0.8	0.3	8.9%	-5.5	-0.5	-5.2
CCCCCCC(=O)c1c(C)[nH]c(C(=O)OCC)c1C	1.4	24.9	11.1%	-2.9	-0.6	-9.7
COc1cc(CC(=O)Nc2sccc2C(N)=O)cc(OC)c1OC	-0.1	6.9	1.5%	-1.2	3.2	-3.3
COc1cc(CNc2ccc3[nH]c(=O)[nH]c3c2)ccc1OCc1ccc(Cl)cc1	0.2	3.9	8.4%	1.9	-6.5	-10.2
CCc1ccccc1NC(=O)C1CCCN1S(=O)(=O)c1ccc2c(c1)n(C)c(=O)c(=O)n2C (stereo not given)	-0.8	-16.3	0.3%	-0.3	1.8	6.7
Cc1ccc(SCc2nc(-c3ccccn3)no2)cc1	0.7	29.8	1.2%	-0.5	3.0	-3.0
COc1ccc(Cl)cc1NC(=O)Cn1c(=O)n(-c2ccc(C)cc2)c(=O)c2ccc(C(=O)NCc3ccccc3Cl)cc21	0.8	-2.7	-4.2%	/	/	/
CSc1ccccc1NC(=O)CN(C)CC(=O)Nc1ccc(S(=O)(=O)N2CCCC2)cc1	0.4	-6.4	0.0%	4.6	8.3	1.6
O=C(COC(=O)c1cccnc1Cl)NC1CCCCCC1	0.4	-13.1	-1.9%	-0.3	15.9	22.9
CCOC(=O)c1cn(CC)c2ccc(S(=O)(=O)N3CC(C)CC(C)C3)cc2c1=O (stereo not given)	0.5	-5.8	4.7%[38.3 µM]	-0.3	41.1	12.9
CCc1ccc(C(C)NC(=O)C2CCCO2)cc1 (stereo not given)	-0.2	-5.4	-0.7%	-0.4	-1.8	2.5
CCCc1ccc(OCc2ccccc2)c2c(=O)cc(C(=O)OCC)oc12	1.1	15.0	-1.2%	-3.5	/	3.2
CCOc1ccc(/C=C/C(=O)Nc2sc3c(c2C(=O)OC)CCC3)cc1	-0.3	-9.3	2.2%	/	/	/
CN(C)NC(=O)c1cccc(Cl)c1	-0.3	-11.9	1.3%	-7.4	-0.4	-1.3
CCc1nc2ccc(C(=O)Nc3ccc(NC(C)=O)cc3)cn2c1N(C)C(=O)Cc1ccccc1	0.6	/	-0.4%	-6.7	-18.0	10.9
CS(=O)(=O)Nc1ccc(C(=O)NC2CC3CCC2C3)cc1 (stereo not given)	2.7	-8.6	-0.6%[38.3 µM]	-2.5	12.2	2.0
O=C(NCc1ccccn1)c1ccc(Cn2cc(C(F)(F)F)ccc2=O)cc1	-0.5	-8.9	7.4%	-0.8	-1.4	2.3
Cc1ccc(NC(=O)Cn2c(C)csc2=O)cc1	-0.6	27.2	-0.2%	1.8	2.5	1.6
COc1cccc(NC(=O)CN(C)C(C)C(=O)NC(C)c2ccc(Cl)cc2Cl)c1 (stereo not given)	0.9	-2.7	1.9%	4.2	-3.9	0.8
Cc1cc(C)n2nc(SC(C)C(=O)N(C)C3CCCCC3)nc2n1 (stereo not given)	-0.4	33.4	-0.1%	-2.1	-1.4	-5.4
C=CCN1C(=NC(=O)CC)SC2CS(=O)(=O)CC21 (stereo not given)	-0.4	-8.0	2.6%[38.3 µM]	-2.9	61.4	0.0
N#Cc1nc(-c2ccc(COc3ccccc3)o2)oc1NCc1ccccc1	-0.1	-15.6	1.7%	/	/	/
CN(C/C=C/C#CC(C)(C)C)Cc1cccc2ccccc12	0.3	-12.5	?	-5.7	-6.0	18.4
CCOC(=O)c1cn2cccnc2n1	0.2	-13.4	-0.3%	-3.3	0.9	1.3
CS(=O)(=O)N(CC(=O)NCc1ccc(Cl)cc1)C1CCCCC1	-0.7	0.5	-1.1%	-2.6	8.0	2.6

Reprinted from the part before: 2 compounds; new compounds follow.
SMILES	TRPML1 ag	TRPML1 inh	PINK1 modulator	D2 agonist	CtBP-E1A blk	Six1-Eya2 blk
CCOC(=O)c1cn2cccnc2n1	0.2	-13.4	-0.3%	-3.3	0.9	1.3
CS(=O)(=O)N(CC(=O)NCc1ccc(Cl)cc1)C1CCCCC1	-0.7	0.5	-1.1%	-2.6	8.0	2.6
O=C(c1ccco1)N1CCN(c2nc3ccsc3c(=O)s2)CC1	0.3	-3.0	1.4%	-2.4	0.4	-2.0
COc1cc(/C=C2\SC(N)=NC2=O)ccc1OCC(=O)Nc1ccccc1C	1.1	-16.4	6.3%	-2.7	/	-9.2
COC(=O)CCn1c(C)cc(C(=O)COc2ccccc2C(N)=O)c1C	-0.3	-16.0	-1.6%	2.5	-8.3	-7.3
C[C@@H]1CCC(=O)N(CC[C@H](Sc2ccccc2)c2ccccc2)CC1	0.0&-0.3	5.9	6.0%	3.5	/	9.6
O=C(NCCCn1ccnc1)C(=O)NCC1OCCN1S(=O)(=O)c1ccc2c(c1)OCCO2 (stereo not given)	0.8	-8.5	-0.1%	2.4	-12.5	-24.2
Cc1cc(NC(=O)C2C3C(=O)N(Cc4ccc(Cl)cc4)C(C(=O)NC(C)(C)C)C34C=CC2(C)O4)no1 (stereo not given)	0.5	-2.3	?	-1.4	8.0	-3.6
Cc1cccc(C(=O)N2CCNC(=O)C2CC(=O)Nc2cccc(Cl)c2)c1 (stereo not given)	1.0	21.7	0.5%	0.1	-0.8	0.2
CN1CCc2c(OCC(=O)N3CCCc4ccccc43)cccc2C1=O	-0.6	1.0	1.4%	0.6	-17.4	7.9
Cc1c(N2C(=O)CSC2c2ccc([N+](=O)[O-])cc2)c(=O)n(-c2ccccc2)n1C (stereo not given)	-0.1	-1.8	0.7%	4.2	8.0	4.5
CNc1cncc(-c2ccc(F)cc2F)n1	-0.9	/	-0.4%	-3.8	1.1	-2.8
CCCNC(=O)C[C@@H]1C[C@@H]2c3cc(NS(=O)(=O)c4ccc(OC)cc4)ccc3O[C@@H]2[C@@H](CO)O1	0.9	-25.4	-1.2%	-1.2	-0.3	6.3
Cn1c(SCc2cc(=O)[nH]c3ccccc23)nnc1-c1ccco1	0.5	17.5	3.4%	0.5	2.9	1.1
O=c1oc(C2(O)CCCCC2)cc2ccccc12	-0.3	-7.8	-0.1%	-3.0	4.8	3.1
C[C@@H]1CN([C@H](C)CO)C(=O)c2cccc(NC(=O)Nc3ccc(C(F)(F)F)cc3)c2O[C@H]1CN(C)S(=O)(=O)c1cccs1	0.9	0.0	19.4%	-3.5	-3.5	-3.6
Cc1ccc(CNC(=O)c2cc3c(s2)-c2ccccc2SC3)cc1	2.9	-13.3	0.9%	/	/	/
CCCOP(=O)(OCCC)C(Nc1cccc(C(F)(F)F)c1)c1ccc(C)cc1 (stereo not given)	1.1	-2.0	13.2%[38.3 µM]	-0.7	10.9	5.1
COCCCNC(=O)/C=C/c1cccc(Cl)c1	2.3	1.7	0.7%	0.9	2.5	9.0
CCCCN(CC)C(=O)Cn1ncc2c1-c1cc(C)ccc1OC2	0.3	0.1	2.0%	-3.5	1.1	-2.9
Cc1ccc(CNc2nc(NC(C)C)nc3ccsc23)c(C)c1	-0.7	/	?	-2.4	-6.5	1.4
CC(=O)c1ccc2c(c1)N(CCCN1CCC(CCO)CC1)c1ccccc1S2	1.1	21.9	-0.4%	-9.4	1.0	-3.2
COc1ccc(CN2CCC[C@]3(N[C@H](c4ccc(C)cc4)[C@@H]4C(=O)N(C)C(=O)[C@@H]43)C2=O)cc1	0.6	7.4	1.1%	-8.7	-13.8	-18.3
CN(Cc1cn(C)nc1-c1ccccc1F)CC1CCCCO1 (stereo not given)	-0.4	3.8	0.1%	-1.0	3.2	1.7
Clc1nc(Cl)nc(-c2cn(-c3ccccc3)c3ccccc23)n1	0.4	39.3	0.5%	1.7	/	-1.2
CC1CCCCC1NC(=O)COC(=O)Cc1ccc(Br)cc1 (stereo not given)	2.0	-3.8	-0.4%	0.7	4.3	-2.4
Cc1ccc(C2=NN(CC(=O)NCCc3ccccc3)C(=O)CC2)cc1	0.7	-2.0	-0.9%	/	/	/

The list goes on:
SMILES	TRPML1 ag	TRPML1 inh	PINK1 modulator	D2 agonist	CtBP-E1A blk	Six1-Eya2 blk
Cc1onc(-c2c(Cl)cccc2Cl)c1NC(=O)N(C)N	-0.8	-1.6	14.3%	-4.9	/	10.9
O=C(CSc1nnc(-c2ccccc2)c(-c2ccccc2)n1)NC1CCCCC1	-0.1	-13.1	-0.2%	/	/	/
COc1ccc(N=Cc2c(C)[nH][nH]c2=O)cc1	-0.7	0.4	1.2%	-3.1	/	-3.9
C[C@@H]1COC(=O)[C@H](Cc2ccc(F)cc2)C/C=C\C[C@@H](CC(=O)N[C@H](CO)Cc2ccccc2)C(=O)N1	-0.3	-3.7	1.5%	-4.4	/	3.5
C/C(=N/NS(=O)(=O)c1ccc(C)cc1C)c1ccc2c(c1)OCO2	2.9	2.1	0.9%	-5.4	-5.3	-1.5
Cc1[nH]nc2c1C(c1ccc(F)cc1)C1=C(CC(C)(C)CC1=O)N2 (stereo not given)	3.2	5.3	3.0%	-1.6	0.5	-1.2
CCOc1cccc(C2C(C(=O)c3ccco3)=C(O)C(=O)N2Cc2ccncc2)c1 (stereo not given)	-1.0	-3.0	-0.3%	-1.8	1.7	2.1
Cc1cc(C)c(C)c(S(=O)(=O)N2CCC(C(=O)NNC(=O)c3ccccc3O)CC2)c1C	2.3	-10.2	-0.7%	-0.7	-6.4	-29.6
COc1ccc(F)cc1-c1cc(NC(C)=O)c2ncc(-c3cccc(C(F)(F)F)c3)n2c1	-0.8	/	0.7%	-4.8	-4.3	-3.2
C/C(N)=C(/C#N)C(=O)COC(=O)c1cc(-c2ccc(Br)cc2)nc2ccccc12	0.1&0.8	-2.5&21.0	1.4%&1.2%	7.1&-1.4	2.5&6.0	-0.3&4.0
Cc1cccc(NC(=O)CSc2nnc(CNC(=O)c3ccc(S(=O)(=O)N(C)C)cc3)n2-c2ccccc2)c1	0.5	-10.8	1.2%	2.2	-2.9	3.0
O=C(Nn1cnc2ccccc2c1=O)c1ccc(Br)cc1	-0.8	24.3	0.0%	0.0	-4.1	-5.1
COc1ccccc1-n1cnc2cc(C(=O)NCc3ccco3)ccc21	-0.7	5.0	4.7%	-3.3	-0.6	-11.6
COc1ccccc1CCC(=O)OCC(=O)c1c(N)n(CC(C)C)c(=O)n(C)c1=O	0.6	3.3	-0.1%	7.8	6.4	-2.3
COc1ccccc1NC(=O)/C(=C\c1cccs1)NC(=O)c1ccco1	0.6	6.5	-0.5%	0.6	3.8	2.5
CCc1cccc(C)c1NC(=O)c1cc(C)nc2c1c(C)nn2-c1cccc(Cl)c1C	0.3	2.0	0.9%	/	/	/
CCOC(=O)C1(C)CCN1C(=O)c1cccs1 (stereo not given)	0.1	/	0.5%	-3.1	0.2	0.3
C/C(=N\Nc1cccc(C(=O)O)c1)c1ccc2c(c1)Nc1ccccc1S2	2.2	28.3	2.9%	41.5*	-8.9	-18.9
COc1ccc(/C=N/NC(=O)Cn2cc(C(F)(F)F)ccc2=O)cc1	-1.0	7.3	0.7%	1.8	17.3	2.4

Compounds as they come; overall some 1% were active at least once.
